Screening results as filed in PubChem BioAssay.
KCNQ2 pot: KCNQ2 (rat) channel potentiation; B-score at 10 µM; 310,000 compounds, 0.54% hits; O88943; CHO-K1 KCNQ2, FluxOR thallium flux fluorescence; hits give high values;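 active = fluorescence ratio B-score at least 3 SD of library B-scores, with initial fluorescence B-score within 3 SD, cut at about 5.3 in these data; same plate scores as AID 2156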;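 also: B-score of peak minus minimum over baseline fluorescence ratio after K+ and Tl+ stimulus; positive B-score means potentiation of KCNQ2 with more thallium influx and brighter signal; only the inactives scoring about 0 or higher are listed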
Target sequence (O88943 whole entry, looked up): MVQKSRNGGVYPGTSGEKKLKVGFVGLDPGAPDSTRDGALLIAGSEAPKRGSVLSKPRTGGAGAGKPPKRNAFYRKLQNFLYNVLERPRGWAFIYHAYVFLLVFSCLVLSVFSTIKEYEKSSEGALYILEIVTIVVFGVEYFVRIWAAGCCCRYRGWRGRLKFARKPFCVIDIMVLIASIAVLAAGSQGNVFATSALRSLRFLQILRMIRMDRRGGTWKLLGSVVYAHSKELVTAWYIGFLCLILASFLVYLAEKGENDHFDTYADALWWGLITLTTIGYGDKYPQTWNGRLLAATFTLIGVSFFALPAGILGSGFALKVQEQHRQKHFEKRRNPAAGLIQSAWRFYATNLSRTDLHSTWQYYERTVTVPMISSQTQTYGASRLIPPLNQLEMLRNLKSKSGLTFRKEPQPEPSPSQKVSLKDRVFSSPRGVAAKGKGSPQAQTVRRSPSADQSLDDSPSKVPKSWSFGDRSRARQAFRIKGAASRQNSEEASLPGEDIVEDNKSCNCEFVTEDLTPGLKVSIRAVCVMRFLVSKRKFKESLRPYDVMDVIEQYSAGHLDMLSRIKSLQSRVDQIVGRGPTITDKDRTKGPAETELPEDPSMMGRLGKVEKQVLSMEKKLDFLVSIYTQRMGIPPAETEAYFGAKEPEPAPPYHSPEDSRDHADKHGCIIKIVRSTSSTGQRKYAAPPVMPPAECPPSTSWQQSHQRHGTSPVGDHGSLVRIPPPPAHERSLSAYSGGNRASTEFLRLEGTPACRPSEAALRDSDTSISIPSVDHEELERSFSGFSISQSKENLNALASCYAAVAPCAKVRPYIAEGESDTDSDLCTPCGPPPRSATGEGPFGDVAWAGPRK
KCNQ2 pot baseline: further read-out of KCNQ2 pot, marked with its call; B-score; compound at 10 µM; measured here: initial fluorescence intensity artifact check;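 brightness before thallium and not channel activity; 0 = typical well and far values either way flag optical interference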
Starred values were filed as active, the others as inactive.

KCNQ2 pot | KCNQ2 pot baseline | compound
1.3 | 0.62 | C=CCNC(=O)C1COc2ccccc2O1 (stereo not given)
0.5 | -5.5 | Cc1cc(N2CCN(C(=O)c3ccco3)CC2)n2nc(C)nc2n1
0.09 | -0.79 | Cc1cc(NC(=O)CSc2nccn2C)no1
0.7 | -0.61 | CC(C)c1ccc(S(=O)(=O)N2CCN(C(=O)CN3C(=O)NC(C)(c4ccccc4)C3=O)CC2)cc1 (stereo not given)
1 | -0.67 | C[C@H](CCC(=O)O)[C@H]1CC[C@H]2[C@@H]3CC[C@@H]4C[C@H](O)CC[C@]4(C)[C@H]3C[C@H](O)[C@]12C
0.46 | 1.1 | CCn1c(SCC(=O)O)nnc1-c1ccccc1OC
0.41 | -2.5 | CC1(OC(=O)CCc2ccccc2)C(=O)C=C2C=C(c3ccc(C#N)cc3)N(c3ccccc3)C=C2C1=O (stereo not given)
0.29 | 0.03 | O=C(Cn1nnc(-c2cccs2)n1)OC1CCCCC1
0.39 | 1.8 | CCN(CC)S(=O)(=O)c1ccc2[nH]c(=O)cc(C(=O)NCC(c3ccco3)N3CCCC3)c2c1 (stereo not given)
0.29 | -1.9 | Cc1cc(NC(=O)CSc2nc3c(c(=O)n2-c2ccc(Cl)cc2)SCC3)no1
0.15 | -1 | COCc1ccc(CN2CCCC(C(=O)Nc3ccccc3-c3ccc(OC)cc3)C2)o1 (stereo not given)
0.06 | 2.2 | NNC(=O)CN1C(c2ccc(Cl)cc2)=Nc2ccc(Br)cc2C1c1ccccc1 (stereo not given)
0.27 | -0.06 | O=C(Nc1ncccn1)c1cccc(Cl)c1
0.03 | -0.73 | Cc1ccc(NCc2nnc(SCC(=O)NCCc3ccccc3)n2C)cc1
1.6 | -1.1 | CCn1cc(C(=O)OCC(=O)Nc2cccc(S(=O)(=O)N3CCOCC3)c2)c(=O)c2ccc(C)nc21
0.01 | 0.41 | CC(C)Cn1c(=O)c2ccccc2n2c(CCC(=O)NC3CCN(Cc4ccccc4)CC3)nnc12
0.01 | 2.6 | COc1cccc(OCCCn2ccnc2)c1
0.01 | 2.1 | Fc1ccc(OCc2nc(-c3ccncc3)n[nH]2)cc1
0.06 | -1.4 | O=C(Nc1ccc(S(=O)(=O)Nc2nccs2)cc1)C1CC(=O)N(c2ccccc2)C1 (stereo not given)
1.8 | -0.82 | CCc1nnc(NC(=O)CN2CCN(C3CCCCC3)CC2)s1
0.87 | -0.63 | CCCCc1nc(NCC2CCCO2)c(C#N)c2c1COC(C)(C)C2 (stereo not given)
0.9 | 0 | COC(=O)N1N=C(c2ccccc2)CC1(O)C(F)(F)F (stereo not given)
0.83 | -0.55 | CC(=O)Nc1ccc(Sc2ncccc2C(=O)Nc2ccc(F)cc2)cn1
1.9 | 0.49 | CS(=O)c1ccccc1COC(=O)Nc1ccc(Cl)cc1 (stereo not given)
0.55 | 0.59 | O=C(Nc1ccc(Oc2ccccc2)nc1)C1CCN(Cc2ccccc2)CC1
0.09 | -0.28 | Cn1c(CNC(=O)Nc2cccc(Cl)c2)nnc1SCc1ccccc1
0.49 | 1 | CCC(=O)Nc1cccc(NC(=O)c2cccnc2)c1
1.5 | -0.2 | NC(=O)CN1C(=O)C(O)(CC(=O)/C=C\C=C\c2ccccc2)c2ccccc21 (stereo not given)
0.1 | -0.06 | CC(=O)c1ccccc1OC(=O)c1ccc(-c2ccccc2)cc1
1.4 | 0.37 | COc1ccc(-c2cc(C(=O)Nc3cc(C)nn3-c3ccccc3)no2)cc1OC
1.4 | -0.29 | COc1ccc(S(=O)(=O)NC(C)C(=O)NCc2ccc3c(c2)OCO3)cc1OC (stereo not given)
0.92 | 0.34 | COc1cccc(C(=O)Nc2c(C(N)=O)oc3ccccc23)c1
0.52 | 0.19 | CCc1ccccc1NC(=O)Cn1nc(C)n2cccc2c1=O
0.68 | 0.18 | O=C(Nc1ccncc1)c1ccc(Cl)c(S(=O)(=O)N2CCc3ccccc32)c1
1.2 | -0.22 | COc1ccccc1N(CC(=O)NCC1CCCO1)C(=O)CNS(=O)(=O)c1ccc(Cl)cc1 (stereo not given)
0.01 | 1.5 | CCOc1cc(C(=O)OC(C)C(=O)Nc2ccc(S(N)(=O)=O)cc2)ccc1OCC(=O)N1CCOCC1 (stereo not given)
1.7 | -1.2 | COc1ccc(C2=NS(=O)(=O)N(C)C(C(=O)Nc3ccc(C)cc3)=C2)cc1
0.71 | -0.24 | Cc1cc(=O)n2nc(N3CCCC3C(=O)Nc3ccc(C(C)C)cc3)sc2n1 (stereo not given)
0.66 | 0.03 | O=C(CN1C(=O)c2ccccc2S1(=O)=O)Nc1ccc(S(=O)(=O)N2CCCCC2)cc1
0.1 | 0.16 | O=C(COC(=O)C1CC1)NCCNC(=O)COC(=O)C1CC1
1.2 | 1.3 | O=C(N/N=C/c1cccs1)c1ccc(NC(=O)c2ccccc2Cl)cc1
0.39 | -0.04 | Cc1ccccc1CC1(CO)CCCN(C(=O)c2ccc3ncccc3c2)C1 (stereo not given)
0.94 | -1.1 | O=C(CNc1n[nH]c(=O)[nH]c1=O)N/N=C/c1cccnc1
0.28 | -0.52 | CCOC(=O)N1CCN(C(=O)c2cc3ccc(OC)cc3[nH]2)CC1
0.49 | 1.4 | Cc1ccc(CSCC(=O)N/N=C/c2sccc2C)cc1
0.67 | -0.02 | O=C(COC(=O)c1ccccc1NCCO)NNC(=O)c1cccs1
0.76 | 0 | CC(OC(=O)c1cccc(S(=O)(=O)N(C)C)c1)C(=O)NCc1ccc2c(c1)OCO2 (stereo not given)
0.17 | 2.5 | O=C(O)c1ccc(N2C(=O)CCCC2=O)cc1
0.32 | 0.04 | Cc1ccc(S(=O)(=O)CCSc2cccc(C(=O)O)c2)cc1
7* | -0.6* | COc1ccccc1N1CCN(C(=O)NCc2cccc(C(F)(F)F)c2)CC1
0.16 | 0.49 | COc1cc(/C=N/NC(=O)c2ccc3c(c2)OCCO3)c(Br)c(Br)c1O
0.08 | 2.8 | CCCCOCCCNC(=O)N[C@@H](CCSC)C(=O)OC
0.6 | -0.2 | O=C(CN1CCN(Cc2ccccc2)CC1)Nc1ccc(N2CCOCC2)cc1
1.2 | 1.3 | COc1cccc(C=Nc2cc(C)cc(C)c2)c1O
0.64 | -0.58 | O=C1C2C3C=CC(C3)C2C(=O)N1c1ccc(-c2nc3ccccc3o2)cc1 (stereo not given)
1.1 | -2.4 | C=CCOc1ccc(CNCCc2ccc(S(N)(=O)=O)cc2)cc1
2.1 | 0.36 | Cc1ccc(CN(CC(=O)NC2CCCC2)C(=O)c2csnn2)cc1
0.35 | 1.7 | CC(C)(C)c1nc(CN2CCOCC2)ccc1O
0.16 | 0.43 | O=C(Nc1ccccc1)Nc1ccncc1
0.08 | -0.66 | Cc1ccc(NC(=O)C(=O)NCc2ccncc2)cc1

Profiles, looked up by structure.
`O=C(Nc1ccccc1)Nc1ccncc1` is entered as KCNQ2 pot = 0.16; KCNQ2 pot baseline = 0.43
`O=C1C2C3C=CC(C3)C2C(=O)N1c1ccc(-c2nc3ccccc3o2)cc1` (stereo not given) is entered as KCNQ2 pot = 0.64; KCNQ2 pot baseline = -0.58
`Cc1ccc(NC(=O)C(=O)NCc2ccncc2)cc1` is entered as KCNQ2 pot = 0.08; KCNQ2 pot baseline = -0.66

Retrieved by compound from the list above (2):
KCNQ2 pot | KCNQ2 pot baseline | compound
0.67 | -0.02 | O=C(COC(=O)c1ccccc1NCCO)NNC(=O)c1cccs1
0.39 | -0.04 | Cc1ccccc1CC1(CO)CCCN(C(=O)c2ccc3ncccc3c2)C1 (stereo not given)

The list continues.
KCNQ2 pot | KCNQ2 pot baseline | compound
2.5 | -0.23 | CCOC(=O)N1CCN(C(=O)c2cnn3ccccc23)CC1
0.14 | 1.1 | CCN(CC)CCn1c(=S)[nH]c2cc(C(=O)NCc3ccccc3Cl)ccc2c1=O
1.2 | -0.39 | O=C(Nc1ccc(F)cc1)/C(Cl)=C/c1ccccc1
0.18 | 0.23 | FC(F)(F)c1cccc(OCCOCCn2cncn2)c1
1.6 | 0.66 | COC(=O)C1=C(C)C(c2ccc(OC)cc2)NC(=S)N1 (stereo not given)
0.97 | -1 | NC(=O)c1ccsc1NC(=O)CCS(=O)(=O)c1ccccc1
1.5 | -0.89 | COc1ccc(OC)c(NC(=O)NNC(=O)c2cc3occc3[nH]2)c1
0.97 | -0.48 | O=C1OCCC1Sc1nnnn1-c1ccccc1 (stereo not given)
0.46 | 0.96 | O=C1c2cccc3cc([N+](=O)[O-])cc(c23)C(=O)N1c1nncs1
0.98 | 0.28 | O=C1C2C(c3ccccc3)C=CC(c3ccccc3)C2C(=O)N1CCO (stereo not given)
0.97 | -1.1 | CC(=O)NC1=NN(C(C)=O)C(c2ccc(C)cc2)S1 (stereo not given)
1.6 | -2.3 | C(=N\c1nc2ccccc2n1Cc1ccccc1)/c1cccs1
0.06 | -0.39 | CCc1nn(CC(=O)NCCCN2CCN(C)CC2)c(=O)c2cc3sccc3n12
0.3 | 1.8 | O=C(c1ccc(CS(=O)(=O)c2c(Cl)cccc2Cl)o1)N1CCCC1
0.87 | -0.87 | Cc1ccc(C(=O)N/N=C/c2nc3ccccc3n2C)cc1
1.2 | -0.3 | Cc1ccc2nc(SCCC(=O)O)cc(C)c2c1
0.8 | -0.25 | O=C(O)c1cccc(Nc2c3ccccc3nc3ccccc23)c1
1.7 | -0.38 | Cc1cccc(C)c1NC(=O)C(=O)NCCc1c[nH]c2ccccc12
0.06 | -0.02 | Cc1ccc(CN2C(=O)C(C)Nc3ncnc(N4CCOCC4)c32)cc1 (stereo not given)
0.45 | -0.04 | Cc1cc(C)cc(NC(=O)c2ccc(NC(=O)C3C4CC5OC(=O)C3C5C4)cc2)c1 (stereo not given)
0.69 | 0.42 | CCOc1ccccc1C1CC(c2ccc(Cl)cc2)Nc2nc(N)nn21 (stereo not given)
1.1 | -0.31 | CN(C)S(=O)(=O)c1cc(NC2CC(=O)N(c3ccc(F)cc3)C2=O)ccc1Cl (stereo not given)
0.79 | -0.01 | COCCN1C(=O)C(=O)/C(=C(/O)c2ccc(S(=O)(=O)N3CCOCC3)cc2)C1c1cccc(Cl)c1 (stereo not given)
0.01 | -1.1 | COc1ccc(CNN2CCCCC2C(=O)Nc2ccc(OC)c(OCC(C)C)c2)cc1OC (stereo not given)
0.24 | -1.8 | COc1cccc(OC)c1C(=O)NC(=S)N1CCCCC1c1cccnc1 (stereo not given)
1.6 | -0.89 | Cc1cc2c(cc1S(=O)(=O)NCc1ccccc1)NC(=O)CO2
0.09 | 0.75 | CSCCC(NS(=O)(=O)c1ccc(C)cc1)C(=O)Nc1ccc(C)cn1 (stereo not given)
0.23 | -1.5 | COC(=O)c1cc(S(=O)(=O)Nc2ccc(C)c(F)c2)c[nH]1
0.08 | -0.01 | O/N=C/c1cc(Cl)ccc1OCc1ccccc1Cl
0.16 | -0.01 | CC1C(=O)N2CCCc3cc(NC(=O)COc4ccccc4)cc1c32 (stereo not given)
0.3 | 0.6 | CCc1cccc(NC(=O)C2CCCN(S(=O)(=O)c3c(C)[nH]c(=O)[nH]c3=O)C2)c1 (stereo not given)
0.2 | -0.61 | CC(NC(=O)C(C)N1C(=O)c2ccccc2C1=O)c1ccccc1 (stereo not given)
0.08 | -0.52 | CC1(C)Cc2cccc(OCC(=O)Nc3cc(C(F)(F)F)ccc3N3CCOCC3)c2O1
2 | -0.02 | NS(=O)(=O)c1ccc(CCNC(=O)CSc2nc3ccsc3c(=O)n2CC2CCC(C(=O)O)CC2)cc1 (stereo not given)
1.4 | -2.5 | N#C/C(C(=O)NCc1ccccc1)=C1/N=C(NC(=O)c2ccco2)c2ccccc21
1.3 | -0.02 | O=C(Nc1cccc(Cl)c1)c1ccc2c(=O)n3c(nc2c1)CCCCC3
0.88 | 0.44 | NC(=O)c1nnn(-c2nonc2N)c1-c1ccc([N+](=O)[O-])cc1
1.2 | -0.04 | O=[N+]([O-])c1ccccc1CSc1nnc2ccccn12
0.45 | -0.37 | C/C(=N/NC(=O)CCC(=O)Nc1ccc(Br)cc1)c1ccc(Br)cc1
2.2 | -1.2 | Cc1ccccc1NC(=S)NCc1cccn1C

Part of the list above in order of count of non-hydrogen atoms, ascending.
KCNQ2 pot | KCNQ2 pot baseline | compound
0.06 | -0.02 | Cc1ccc(CN2C(=O)C(C)Nc3ncnc(N4CCOCC4)c32)cc1 (stereo not given)
0.01 | -1.1 | COc1ccc(CNN2CCCCC2C(=O)Nc2ccc(OC)c(OCC(C)C)c2)cc1OC (stereo not given)
2 | -0.02 | NS(=O)(=O)c1ccc(CCNC(=O)CSc2nc3ccsc3c(=O)n2CC2CCC(C(=O)O)CC2)cc1 (stereo not given)

(cont.)
KCNQ2 pot | KCNQ2 pot baseline | compound
0.67 | -1.5 | COCc1ccc(C(=O)N2CCCC(N(C)Cc3ccccc3)C2)s1 (stereo not given)
0.33 | -0.78 | CCCCNC(=O)COC(=O)c1ccc(C)c(NC(=O)c2ccco2)c1
0.33 | 0.09 | CC(Nc1ccc2c(c1)OCCO2)C(=O)N1CCc2ccccc21 (stereo not given)
2.4 | -2.2 | CCc1ccc(NC(=O)c2sc3nc4n(c(=O)c3c2C)CCC4)cc1
0.9 | 2 | CC1CCN(C(=O)COC(=O)c2cc(S(=O)(=O)N3CCOCC3)ccc2Cl)CC1
1.2 | -1.1 | CCc1ccc(OCCOCCN2CCN(C)CC2)cc1
1.4 | 0.22 | COc1cccc(OCCNS(=O)(=O)c2cccc([N+](=O)[O-])c2)c1
0.47 | -0.06 | Cc1ccc(-n2cnnn2)cc1Cl
0.08 | -0.63 | CCOc1ccc(OCC(=O)Nc2ccc(OC)cc2)cc1
0.52 | -0.73 | COc1ccc(-n2nnc3c(=O)n(Cc4ccccc4C)cnc32)cc1
0.54 | -0.23 | Cc1ccc(C)c(S(=O)(=O)Nc2ccc(O)c(C(=O)O)c2)c1

Only part of the results is shown. The share of hits here may be higher or lower than overall.
